NPYLR7 ag = mosquito NPYLR7 agonism; activation, % at 10 µM; hit rate 0.15% among 270,000; HEK293T NPYLR7/Galpha15, GCaMP6s calcium fluorescence; in the data active means activation above about 40%;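 further: 0% = vehicle and 100% = reference agonist at the receptor; some compounds past the cut are filed as inactive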
NPYLR7 ag max-min = further read-out of NPYLR7 ag, marked with its call; activation, %; measured here: Max-Min RFU normalised activation; some inactives read as strong as hits;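 span of the calcium signal over five minutes; 0% = vehicle and 100% = native peptide agonist; compound fluorescence can raise it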
* marks the source's active call; other numbers are inactive results; & = joins results of further samples.

structure	NPYLR7 ag max-min	NPYLR7 ag
C/C(CC(=O)Nc1ccc(C(C)C)cc1)=N/NC(=O)c1ccc(C(C)(C)C)cc1	4	3
O=C(NC[C@@H]1CCNC[C@H]1O)c1ccc[nH]c1=O	4	1
CCC(C)C(=O)OCC(O)(COC(=O)C(C)C)c1ccc(C)cc1O (stereo not given)	-14	-9
O=C(CCc1ccc(=O)[nH]n1)NCc1ccc2[nH]c3c(c2c1)CCCCC3	4	8
N#CC(C(=O)CCc1nc2ccccc2[nH]1)C(=O)Nc1ccccn1 (stereo not given)	-2	0
Clc1ccc2nc(NCc3cccnc3)nc(-c3ccccc3)c2c1	-4	0
CCCNC(=O)N1CCN(c2ccccc2-c2ccccc2)C(=O)C1C (stereo not given)	17	17
Cc1cc(C)cc(-n2c(C)nc3c(c(=O)c4ccccc4n3C)c2=O)c1	3	6
Nc1cccc2cnccc12	4	0
CCOC(=O)c1c(NC(=O)c2ccccc2F)sc(C(=O)Nc2cccc([N+](=O)[O-])c2)c1C	-16	-12
CC(Oc1ccccc1-c1ccnc2c1ccn2C)C(N)=O (stereo not given)	10	24
Cc1ccc2cc(CCNC(=O)C(C)(C)Oc3ccc(Cl)cc3)c(=O)[nH]c2c1C	-3	1
Nc1nc(N)nc(-c2ccc(Br)cc2)n1	-5	5
O=S1(=O)NC(=NCc2ccc(Cl)cc2)c2ccccc21	-11	-8
CC(C)(C)CNC(=O)C1(C)CCN1C(=O)Cc1ccc(-c2ccccc2)cc1 (stereo not given)	32	-3
CN(C)c1ccc(-c2ccnc3c2CC(C)(C(=O)NCc2ccc(F)c(F)c2)O3)cc1 (stereo not given)	-14	-14
Cc1nn(C)c2ncc(C(=O)NCc3ccc(-c4ncc(-c5ccc(F)cc5)[nH]4)cc3)c(Cl)c12	-9	-5
C=CCN(CC(=O)N1CCc2sccc2C1c1ccc(C(C)(C)C)cc1)C(=O)c1ccc2c(c1)OCO2 (stereo not given)	21	13
CC(C)(C)N1CSC(=S)N(Cc2ccccc2)C1	13	24
CC1=C(C(=O)OCC(C)C)C(c2ccc(F)cc2)C2=C(CC(c3ccccc3)CC2=O)N1 (stereo not given)	-2	-1

Rewritten with each value named: part of the list above
> O=C(CCc1ccc(=O)[nH]n1)NCc1ccc2[nH]c3c(c2c1)CCCCC3
  NPYLR7 ag max-min = 4; NPYLR7 ag = 8

> Cc1ccc2cc(CCNC(=O)C(C)(C)Oc3ccc(Cl)cc3)c(=O)[nH]c2c1C
  NPYLR7 ag max-min = -3; NPYLR7 ag = 1

(further entries)
structure	NPYLR7 ag max-min	NPYLR7 ag
COc1ccccc1/C=C/C=C1/N=C(c2ccc(OC)c(OC)c2)OC1=O	-4	1
Cc1nnsc1C(=O)N1CCN(c2c3c(nc4ncnn24)CCCC3)CC1	-4	-3
CCOC(=O)C1=C(C)N(c2ccc(N(C)C)cc2)C(C)=C(C(=O)OCC)C1c1ccccc1Br	-9	-2
CCOC(=O)c1ccc2c(c1)nc(SCc1cccc(C(=O)OC)c1)n2Cc1ccc(C(F)(F)F)cc1	-6	-5
CC(C1CC1)n1nccc1N (stereo not given)	9	5
Cc1cccc(C(=O)N2N=C(c3cccnc3)CC2(O)C(F)(F)F)c1O (stereo not given)	-3	-1
CCc1nc2n(n1)C(=O)C(C(c1cccc(C)c1)N1CCC(C(=O)OC)CC1)S2 (stereo not given)	5	-4
Cc1cccnc1NC(=O)CCC(=O)N1CCOc2ccccc21	-3	-2
COc1cccc(C(=O)C2CCCN(C(=O)c3cccc(F)c3OC)C2)c1 (stereo not given)	-6	2
Oc1ccc2ccccc2c1	-5	-2
CC(Cc1cccs1)NC(=O)CCCn1nnnc1CN1CCOCC1 (stereo not given)	8	6
CCOCCSc1nnc(C)c2cnn(-c3ccc(C)c(C)c3)c12	-18	-13
CS(=O)(=O)NCC(=O)N1CCCC(c2[nH]ncc2-c2ccc(F)cc2)C1 (stereo not given)	4	8
Cc1ccc(-n2ncc3c2CC(C)(C)CC3NC(=O)CCn2cnc3ccccc32)cc1 (stereo not given)	-3	12
CCCN1CCC(C(=O)NC(c2ccc(F)cc2)c2ccc3ccccc3n2)CC1 (stereo not given)	-1	1
CN1C(=O)C(=O)N(CN2CCCC2c2nc3ccccc3s2)C1=O (stereo not given)	4	1
Cc1nn(C)c2[nH]c(=O)c(CCC(=O)N3CC4CCC3C4)c(C)c12 (stereo not given)	2&3	1&4
O=C(NCCN1CCOCC1)c1ccc(CSc2nc(Cl)cc(N3CCN(c4ccccc4F)CC3)n2)cc1	9	6
CN(C)CCCN1C(=O)C(=Cc2ccc(Br)cc2)SC1=S	14	5
COc1cccc(-c2cccc(-c3cccc(NC(=O)c4ccc(C#N)cc4)c3)n2)c1	4	-2
CCOC(=O)N1CCC(NCc2c(C)nn(CC)c2C)CC1	-1	-1
CCNC(=O)N[C@H]1CO[C@H]2[C@@H]1OC[C@@H]2Nc1nccc(C(C)(C)C)n1	-18	-11
Cn1cc(S(=O)(=O)NCCc2cccc(Cl)c2Cl)cc1C(N)=O	3	4
CCOc1ccc(-c2cc(C(=O)NCCCOC)c3ccccc3n2)cc1	3	10
CCNC(=O)[C@@H]1C[C@H](N)CN1Cc1csc(-c2ccccc2)n1	-8	-6
CC(=O)CC1(O)C(=O)N(CCOc2ccc3ccccc3c2)c2ccc(Cl)cc21 (stereo not given)	13	11
Cn1cc(Br)cc1C(=O)Nc1cc2c(cc1Cl)OCO2	-2	1
O=C(c1cccc(F)c1)N1CCCC(OCc2ccc(F)c(F)c2)C1 (stereo not given)	-3	-4
O=C(Cc1cccc(O)c1)N1CCCC1Cc1ccccc1 (stereo not given)	-26	-25
CC1C(=O)N(c2ccc3c(c2)CCC3)CCN1C(=O)c1ccccc1Cl (stereo not given)	10	4
COc1cc(-c2nc(C=Nc3nc4ccccc4n3C)c(O)o2)cc(OC)c1OC	2	3
COc1ccc(OC)c(-c2cc(C(=O)N3CCC(Cn4cccn4)CC3)[nH]n2)c1	-6	-3
CSCC(C)NC(=O)c1ccc(C#N)[nH]1 (stereo not given)	-1	1
COc1cccc(Cc2nsc(N3CCN(CCNC(=O)Nc4ccccc4F)CC3)n2)c1	8	9
O=S(=O)(c1cc2ccccc2s1)N1CC2ON=C(c3c(F)cccc3Cl)C2C1 (stereo not given)	4	7
COc1ccc(C(=O)Nc2cccc(-c3nc4cc(Cl)ccc4o3)c2)cc1[N+](=O)[O-]	-23	-22
CCCc1cc(N2C[C@H]3C[C@H](O)[C@H](O)C[C@H]3C2)nc(C)n1	11	14
Cc1cc(C(=O)N2CCCC(C(=O)Nc3ccccc3Oc3cccnc3)C2)nn1C (stereo not given)	-4	0
O=S(=O)(c1ccc(F)cc1)N1CCN(Cc2ccccc2)CC1	-6	-4
CC1(C)ON=C(c2ccc(F)cc2)N(Cc2ccccc2)C1=O	3	5

An excerpt of these results, with values under each structure.
Value order: NPYLR7 ag max-min	NPYLR7 ag
C/C(CC(=O)Nc1ccc(C(C)C)cc1)=N/NC(=O)c1ccc(C(C)(C)C)cc1
 : 4	3
O=C(NC[C@@H]1CCNC[C@H]1O)c1ccc[nH]c1=O
 : 4	1
CCC(C)C(=O)OCC(O)(COC(=O)C(C)C)c1ccc(C)cc1O (stereo not given)
 : -14	-9
O=C(CCc1ccc(=O)[nH]n1)NCc1ccc2[nH]c3c(c2c1)CCCCC3
 : 4	8
N#CC(C(=O)CCc1nc2ccccc2[nH]1)C(=O)Nc1ccccn1 (stereo not given)
 : -2	0
Clc1ccc2nc(NCc3cccnc3)nc(-c3ccccc3)c2c1
 : -4	0
CCCNC(=O)N1CCN(c2ccccc2-c2ccccc2)C(=O)C1C (stereo not given)
 : 17	17
Cc1cc(C)cc(-n2c(C)nc3c(c(=O)c4ccccc4n3C)c2=O)c1
 : 3	6
Nc1cccc2cnccc12
 : 4	0
CCOC(=O)c1c(NC(=O)c2ccccc2F)sc(C(=O)Nc2cccc([N+](=O)[O-])c2)c1C
 : -16	-12
CC(Oc1ccccc1-c1ccnc2c1ccn2C)C(N)=O (stereo not given)
 : 10	24
Cc1ccc2cc(CCNC(=O)C(C)(C)Oc3ccc(Cl)cc3)c(=O)[nH]c2c1C
 : -3	1
Nc1nc(N)nc(-c2ccc(Br)cc2)n1
 : -5	5
O=S1(=O)NC(=NCc2ccc(Cl)cc2)c2ccccc21
 : -11	-8
CC(C)(C)CNC(=O)C1(C)CCN1C(=O)Cc1ccc(-c2ccccc2)cc1 (stereo not given)
 : 32	-3
CN(C)c1ccc(-c2ccnc3c2CC(C)(C(=O)NCc2ccc(F)c(F)c2)O3)cc1 (stereo not given)
 : -14	-14
Cc1nn(C)c2ncc(C(=O)NCc3ccc(-c4ncc(-c5ccc(F)cc5)[nH]4)cc3)c(Cl)c12
 : -9	-5
C=CCN(CC(=O)N1CCc2sccc2C1c1ccc(C(C)(C)C)cc1)C(=O)c1ccc2c(c1)OCO2 (stereo not given)
 : 21	13
CC(C)(C)N1CSC(=S)N(Cc2ccccc2)C1
 : 13	24

Following part:
structure	NPYLR7 ag max-min	NPYLR7 ag
COc1ccccc1CC(=O)N1CCNCC1C(=O)NC1CC1 (stereo not given)	-7	-2
O=C(CC(c1ccc2c(c1)OCO2)c1c[nH]c2ccccc12)NCc1ccccc1 (stereo not given)	9	13
CCOc1ccc2nc(N(CCN3CCOCC3)C(=O)c3cc(C)no3)sc2c1	20	-1
CC(=O)c1sc(=Nc2ccccc2)n(CCCO)c1C	-1	4
CC(=O)c1cc(C(=O)NCc2ccc(F)c(C)c2)n(C)c1	3	4
COc1cc(O)ccc1-c1nccn1CC[C@@H]1C[C@@H]2C=C[C@H]1C2	-8	-3
CCCCS(=O)(=O)N1CCN(C(=O)CCN2CCc3sccc3C2c2cccc(F)c2)CC1 (stereo not given)	9	17
CCCN(Cc1ccc(C)cc1)C(=O)Cn1c(C(F)(F)F)ccc(C(N)=O)c1=O	11	12
O=C(NCc1cccnc1Oc1ccc(F)cc1F)[C@@H]1C[C@@H](O)CN1	4	7
CC1(C(=O)NC2CCN(Cc3ccccc3)CC2)CCN1Cc1ccc(-n2ccnc2)cc1 (stereo not given)	-1	4
Cc1cc(C)n2c(CN)nnc2n1	11	0
CCOc1cc2c(cc1C=Cc1noc(C)c1[N+](=O)[O-])OC(C)C2 (stereo not given)	4	-1
CN(Cc1cc(C2CC2)n[nH]1)C(=O)CC12CC3CC(CC(C3)C1)C2	24	40
CC(=O)N[C@@H](CC(C)C)C(=O)N1CCc2c(cnc(C)c2CNC(=O)/C=C/c2cccs2)C1	4	18
O=C(Nc1nc2cc(F)c(F)cc2s1)C1CC(=O)N(C2CCCC2)C1 (stereo not given)	-6	-6
CCOc1ccc(-c2ccc3nnc(SCC(=O)NCC4CCCO4)n3n2)cc1 (stereo not given)	-7	-11
COc1ccccc1N1CCN(CCCCNS(=O)(=O)c2cccc3c(N(C)C)cccc23)CC1	8	-2
CCSc1ccccc1C(=O)Nn1cnc2c(cnn2-c2ccc(C)c(C)c2)c1=O	2	2
COC(=O)c1onc(C(=O)c2ccccc2)c1C(=O)OC	-1	2
C#CCN1CCN(C(=O)CN2CCCN(C(=O)c3ccsc3)CC2)CC1	7	11
Cc1cc(C)c(C(O)c2ncc(-c3ccccc3C)[nH]2)c(C)c1 (stereo not given)	-1	1
COc1ccc(NC(=O)C(C)CS(=O)(=O)c2ccc(Br)cc2)cc1F (stereo not given)	1	3
CCCCN(C(=O)CCNC(C)=O)C1CCCCCC1	-6	-5
COCCN(Cc1csc(COc2ccccc2C(C)C)n1)C(=O)c1cccs1	3	-2
CCOc1ccc(NC(=O)NCCN2CCOCC2)cc1	4	5
COC(=O)c1cc(O)c(C(=O)Nc2ccc(Cl)cc2Cl)s1	11	5
CCOCc1cc(CN2CCCC(CO)(Cc3ccccc3)C2)ccc1OC (stereo not given)	4	5
CC(=O)c1ccc(S(=O)(=O)NCCOc2ccc3nnc(C)n3n2)cc1	3	1
Cc1ccc(S(=O)(=O)NNC(=O)c2ccc(OC(C)C)cc2)s1	0	1
CC(=O)Cn1c(=O)c2c(nc3n(-c4cc(C)cc(C)c4)c(C)c(C)n23)n(C)c1=O	12	0
N#Cc1ccc(CCC(=O)NCc2cccc(F)c2)cc1	1	2
CC(NC(=O)C1=NC=CN2CCS(=O)(=O)N=C12)c1cccc(C(F)(F)F)c1 (stereo not given)	4	9
CCCCCc1ccc(C(=O)Nc2nnc(SCC(=O)c3cccc(OC)c3)s2)cc1	4	4
C=CC#CC(C)(C)c1ccc(OC(C)=O)c(C)c1	2	1
O=[N+]([O-])c1cccc(S(=O)(=O)Nc2nc3ccccc3nc2-n2ccnc2)c1	10	6
CCOC(=O)c1cnc2c(cnn2CC)c1NN=C(C)C	-12	-4
CN1CCCC(CSc2ncnc3ccsc23)C1 (stereo not given)	-9	-8
O=C(CN1CN(c2ccccc2)C2(CCN(C(=O)c3ccccc3Br)CC2)C1=O)N1CCCC1	14	17
COc1cccc(CNC(=O)c2oc3ccccc3c2CS(C)=O)c1 (stereo not given)	6	7
C[n+]1cccc(C(=O)O)c1	-5&-14	0&-7
Cc1c(C(=O)NN=Cc2ccc(-c3ccc(Cl)cc3Cl)o2)sc(N)c1C#N	3	6
CCOC(=O)c1c(C)nn(-c2ccc(C(=O)NCCCN(C)c3ccccc3)cc2)c1C	-7	-3
CCC(NC(=O)CNC(=O)Nc1ccccc1)c1ccc(Br)cc1 (stereo not given)	-5	-1
COc1ccccc1-n1ncc2c(C(C)C)nnc(SCC(=O)NCC3CCCO3)c21 (stereo not given)	-17	-10
COc1ccccc1-c1cc(C(=O)N(CCN(C)C)Cc2ccccc2)n2nc(-c3ccc(Cl)cc3)cc2n1	5	4
CCCc1n(CC(=O)C(C)(C)C)c2ccccc2[n+]1C	5	2
CCN1CCN(c2cc(C)nc3c(-c4ccccc4Cl)c(C(F)(F)F)nn23)CC1	-5	1

Bioassay records as filed in PubChem.

These rows are one share of the data (hit frequency here may not be typical).
